VDR inh = blocks the human vitamin D receptor. 0.93% of 400,000 active. AID 504847. Potency, µM, inactives show max response, negative = inhibition, usual class: inhibitors. VDR-SRC2-3 peptide fluorescence polarization, 2 h. P11473; active means well fitted inhibition curve with a large enough effect; inconclusive means small, poorly fitted or top-dose-only effect, or another doubt; inactive means no such curve, though single readings can be large or run the other way; further: series mostly up to about 120 µM
Target sequence (P11473 whole entry, looked up): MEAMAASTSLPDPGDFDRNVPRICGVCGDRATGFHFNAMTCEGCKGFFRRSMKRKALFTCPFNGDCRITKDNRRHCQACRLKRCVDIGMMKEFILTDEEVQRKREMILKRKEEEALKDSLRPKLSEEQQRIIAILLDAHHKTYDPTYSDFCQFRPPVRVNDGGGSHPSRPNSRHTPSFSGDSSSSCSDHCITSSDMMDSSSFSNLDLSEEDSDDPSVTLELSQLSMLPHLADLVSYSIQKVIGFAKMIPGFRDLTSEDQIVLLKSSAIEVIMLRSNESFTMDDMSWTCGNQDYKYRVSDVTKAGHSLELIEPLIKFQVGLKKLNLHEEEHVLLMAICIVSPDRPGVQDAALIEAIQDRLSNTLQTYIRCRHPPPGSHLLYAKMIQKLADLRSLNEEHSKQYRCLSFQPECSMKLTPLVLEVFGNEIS
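Fluorescence polarization assay measuring small-molecule disruption of VDR binding to the coregulator peptide SRC2-3. Compounds were pin-transferred (23 nl) into the reagent mix and incubated 2 h at room temperature before reading.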
Numbers without * were called inactive; ? = inconclusive; ! = a repeat was not active. On the % scale 0 is the no-effect control and ±100 the full control effect; potency means the concentration at half of the fitted maximal effect. An excerpt (hit frequency here may not be typical).

Start of the data: the first 17 compounds, ahead of the listing:
SMILES	VDR inh
O=c1c2ccccc2sn1-c1cc(S(=O)(=O)N2CCOCC2)ccc1N1CCOCC1	18µM*!
O=S(=O)(c1cccc(-c2n[nH]c(=S)n2-c2cccc(C(F)(F)F)c2)c1)N1CCOCC1	-2%
COc1ccc(C(=O)NCC(c2ccco2)N2CCc3ccccc3C2)cc1 (stereo not given)	2%
CCO[C@@H]1OC(C(=O)N2CCN(Cc3ccccc3)CC2)=C[C@H](c2ccc(C(F)(F)F)cc2)[C@H]1CCCO	-14%
CCCCCn1c2c(c(=N)c3ccccc31)CCC2	-4%
CCCCOc1ccccc1C(=O)Nc1nonc1-c1ccccc1	-2%
CC(C)(C)NC(=O)C(c1ccco1)N(C(=O)c1ccc(CN2CCOCC2)o1)c1ccccc1 (stereo not given)	-15%
O=C(CN1C(=O)COc2ccc(S(=O)(=O)N3CCCC3)cc21)N1CCN(c2ccccc2)CC1	3%
COc1ccc(CCNC(=O)CCn2c(=O)c3ccccc3n(CC(=O)Nc3ccccc3F)c2=O)cc1OC	1%
O=C(CN1CCN(CC(=O)Nc2ccccc2F)CC1)Nc1cccc(F)c1	9%
COc1cccc(N2CCN(C(=O)c3cccc(-n4c(C)nc5cccnc54)c3)CC2)c1	7%
CCn1c2ccccc2c2cc(N=C3SC(CC(=O)Nc4ccccc4)C(=O)N3C)ccc21 (stereo not given)	0%
Clc1nssc1=Nc1ccc(Br)cc1	35µM*
Cc1nn(-c2ccccc2)c(N)c1C(c1ccc(C(C)C)cc1)c1c(C)nn(-c2ccccc2)c1N	8%
Cc1ccccc1Cn1c(NC2CCCC2)nc2c1c(=O)[nH]c(=O)n2C	-9%
S=c1[nH]nc(C2CCCCC2)n1/N=C/C(Cl)=C\c1ccccc1	-26%
CCOc1ccc(N2C(=O)/C(=C\c3ccc(O)c(OC)c3)S(=O)(=O)C2c2cccc([N+](=O)[O-])c2)cc1 (stereo not given)	-17%

The whole of this part, from the first entry:
SMILES	VDR inh
O=c1c2ccccc2sn1-c1cc(S(=O)(=O)N2CCOCC2)ccc1N1CCOCC1	18µM*!
O=S(=O)(c1cccc(-c2n[nH]c(=S)n2-c2cccc(C(F)(F)F)c2)c1)N1CCOCC1	-2%
COc1ccc(C(=O)NCC(c2ccco2)N2CCc3ccccc3C2)cc1 (stereo not given)	2%
CCO[C@@H]1OC(C(=O)N2CCN(Cc3ccccc3)CC2)=C[C@H](c2ccc(C(F)(F)F)cc2)[C@H]1CCCO	-14%
CCCCCn1c2c(c(=N)c3ccccc31)CCC2	-4%
CCCCOc1ccccc1C(=O)Nc1nonc1-c1ccccc1	-2%
CC(C)(C)NC(=O)C(c1ccco1)N(C(=O)c1ccc(CN2CCOCC2)o1)c1ccccc1 (stereo not given)	-15%
O=C(CN1C(=O)COc2ccc(S(=O)(=O)N3CCCC3)cc21)N1CCN(c2ccccc2)CC1	3%
COc1ccc(CCNC(=O)CCn2c(=O)c3ccccc3n(CC(=O)Nc3ccccc3F)c2=O)cc1OC	1%
O=C(CN1CCN(CC(=O)Nc2ccccc2F)CC1)Nc1cccc(F)c1	9%
COc1cccc(N2CCN(C(=O)c3cccc(-n4c(C)nc5cccnc54)c3)CC2)c1	7%
CCn1c2ccccc2c2cc(N=C3SC(CC(=O)Nc4ccccc4)C(=O)N3C)ccc21 (stereo not given)	0%
Clc1nssc1=Nc1ccc(Br)cc1	35µM*
Cc1nn(-c2ccccc2)c(N)c1C(c1ccc(C(C)C)cc1)c1c(C)nn(-c2ccccc2)c1N	8%
Cc1ccccc1Cn1c(NC2CCCC2)nc2c1c(=O)[nH]c(=O)n2C	-9%
S=c1[nH]nc(C2CCCCC2)n1/N=C/C(Cl)=C\c1ccccc1	-26%
CCOc1ccc(N2C(=O)/C(=C\c3ccc(O)c(OC)c3)S(=O)(=O)C2c2cccc([N+](=O)[O-])c2)cc1 (stereo not given)	-17%
CCOC(=O)c1c(C)n(C)c2ccc(OC)c(NS(=O)(=O)c3ccc(Cl)s3)c12	-15%
CN(C(=O)c1ccc(OCC=C(c2ccccc2)c2ccccc2)cc1)c1ccccc1I	-4%
COc1ccc(O)c(/C=N/NC(=O)c2cc(=O)[nH]c3ccccc23)c1	11%
Cn1ccnc1SCC(=O)NCC(=O)Nc1ccc(F)c(F)c1F	12%
COc1ccc(NC(=O)CC2C(=O)N(c3ccc(Cl)cc3)C(=S)N2CCc2ccccn2)cc1 (stereo not given)	-19%
COc1c(C)cccc1C(=O)Nc1ccc(CN2CCCCC2)cc1	0%
COc1ccc(C(=O)N2CCN(c3ccccc3OC)CC2)cc1	-8%
COc1cccc(-c2ccc(SCC(=O)NC3CCCC3)nn2)c1	-3%
CSc1nc(C)cc(Oc2ccc(=O)n(C)n2)n1	-4%
Cc1cc(C(=O)Nc2ccc(C#N)cc2)on1	-3%
Cn1c2ccccc2c2c(C(=O)O)cn(C3CCCC3)c(=O)c21	-4%
Cc1cc(C(=O)COC(=O)Cc2ccc(Cl)cc2)c(C)n1C	9%
CCOc1ccc(NC(=O)CN(C)C(=O)c2c(C)nn(-c3ccccc3)c2Cl)cc1OCC	-16%
Cc1c(C(Nc2ccccn2)c2ccccc2)c(=O)n(-c2ccccc2)n1C (stereo not given)	-5%
O=C(CSc1nc2c([nH]c3ccccc32)c(=O)n1-c1ccccc1F)Nc1ccccc1C(F)(F)F	-10%
O=C(NCc1cccnc1)c1ccc(Br)s1	-1%
OC(COCC(F)(F)C(F)(F)C(F)(F)C(F)F)Cn1c2ccc(Cl)cc2c2cc(Cl)ccc21 (stereo not given)	-9%
CCOc1ccc(C(=S)N2CCN(C)CC2)cc1	?
COc1ccc(Br)cc1CNCC1CCCO1 (stereo not given)	4%
O=[N+]([O-])c1cc(/C=N/O)ccc1N1CCCC1	0%
O=C(NCc1n[nH]c(=S)n1-c1ccc([N+](=O)[O-])cc1)c1ccc(S(=O)(=O)N2CCOCC2)cc1	8%
O=C(NNC(=O)c1cc2ccccc2o1)c1ccc(Cl)cc1	-5%
CCOC(=O)C1CCN(C(=O)CC(NS(=O)(=O)c2ccc(OC)cc2)C(C)C)CC1 (stereo not given)	?
COc1ccc(C(=O)NC2CCN(C(=O)NC3CCCCC3)CC2)cc1	-4%
FC(F)(F)c1ccc(Oc2ccc3cc(Br)ccc3c2)nc1	7%
O=C(NCc1nc2ccccc2[nH]1)C1=C[C@H](c2ccc3c(c2)OCO3)C[C@H](OCCCCO)O1	19%
COC(=O)c1c(-c2ccc(OC)cc2)sc2ccc(OC)cc12	-18%
O=C(CN1C(=O)C2(SCC(=O)N2c2ccc(F)c(F)c2)c2ccccc21)NCCc1ccccc1 (stereo not given)	6%
COc1ccc(C(=O)NCCn2cc(SCC(=O)Nc3ccc(C)cc3)c3ccccc32)cc1	14%
CCCCC(C(=O)NC1CCCC1)N(Cc1ccccc1)C(=O)c1snc(C(N)=O)c1N (stereo not given)	15%
COc1cccc(NC(=S)N(CCc2ccc(OC)c(OC)c2)Cc2ccccn2)c1	-6%
Cc1ccc(OCC(O)CN2C(=O)NC(C)(C)C2=O)c(C)c1 (stereo not given)	-3%
Cc1ccc(NC(=O)CCc2nnc3ccc(NCc4ccco4)nn23)cc1	2%
The list continues.
SMILES	VDR inh
COc1ccc(N2CCN(Cc3cc(=O)oc4cc(C)c(Cl)c(C)c34)CC2)cc1	10%
O=C(O)COc1ccc(/C=N/n2cnc3scc(-c4cccs4)c3c2=O)cc1	-11%
COc1ccc(N2C(=O)CSC23C(=O)Nc2ccccc23)cc1OC (stereo not given)	4%
CC[C@]12c3[nH]c4ccc(Cl)cc4c3CCN1C(=O)[C@@H](CC(=O)NC/C=C(\C)CCC=C(C)C)C[C@@H]2C(=O)N1CCN(C(=O)C2CC2)CC1	-14%
Cc1cc(C)c(N=C2C(=O)Nc3ccccc32)c(C)c1	29%
OCC(O)/C=N/Nc1nc2ccccc2s1 (stereo not given)	6%
CC(Sc1nnc(C(F)(F)F)n1C)C(=O)Nc1ccc(S(N)(=O)=O)cc1 (stereo not given)	-19%
Cc1ccc(NC(=O)N2CCc3ccccc32)cc1C	17%
Cc1ccc(C)c(N(C(=O)c2csnn2)C(C(=O)NC2CCCC2)c2cccnc2)c1 (stereo not given)	-9%
CN=c1scc(-c2ccc(Br)cc2)n1C	0%
COc1ccc(N(C(=O)c2ccco2)C(C(=O)NC2CCCC2)c2ccc(N(C)C)cc2)cc1OC (stereo not given)	4%
NC(=O)C1c2ccccc2CSc2ccccc21 (stereo not given)	-2%
Cn1c(=O)n(C)c2cc(N3CCOCC3)c(NC(=O)c3ccc(Cl)cc3)cc21	12%
CC(C)c1cc(=O)n2c(nc3ccccc32)[nH]1	-8%
CS(=O)(=O)N(CC(=O)NCCSCc1ccccc1)c1ccccc1F	-2%
O=C(OCc1c(-c2ccccc2)ncc2ccccc12)c1cccc(Br)c1	-7%
COC(=O)C1=NNC2C(=O)N(c3ccc(C)cc3)C(=O)C12 (stereo not given)	-11%
O=C(CCSCCC(=O)NCc1ccccc1)NCc1ccccc1	2%
Cc1c(C(=O)O)cccc1-c1ccc(C=O)o1	7%
CSc1ccccc1NC(=O)c1cc(-c2cccs2)on1	-6%
CCOc1ncccc1C(=O)N(C)CC(=O)Nc1ccc(F)cc1	-23%
Cc1ccc(OCCOCCN2CCN(C)CC2)c(C(C)(C)C)c1	1%
CC1CC(C(O)c2ccccn2)C(=O)C(C(O)c2ccccn2)C1 (stereo not given)	18%
COCc1cc(C)c2c(N)c(C#N)sc2n1	-4%
Cc1noc(C)c1S(=O)(=O)N1CCC(C(=O)NCCN2CCC(C)CC2)CC1	4%
O=c1c(N2CCOCC2)nsnc1N1CCOCC1	7%
Cc1ccc(C)c(NC(=O)CN(C)C(C)C(=O)N2CCCC2)c1 (stereo not given)	1%
O=C(NCc1ccco1)c1ccc(C(=O)NCc2ccco2)cc1	-19%
CC(=O)NCCC(=O)N(C)CC1CCN(CCc2cccc(C(F)(F)F)c2)CC1	?
COc1cccc(CN(C(=O)c2ccco2)C(C(=O)NC2CCCC2)c2cccnc2)c1 (stereo not given)	-12%
Cc1ccc(S(=O)(=O)N2CCC(=O)N(CCOCc3cccc(F)c3)CC2)cc1	-11%
CCc1ccc(NC(=O)c2ccccc2SC)cc1	14%
CCC[C@H]1COCCS(=O)(=O)N1Cc1ccccc1	6%
Cc1nn(C(=O)c2ccco2)c(C)c1Br	3%
COc1ccc(C(=O)NNC(=S)NC(=O)c2ccc(F)cc2)cc1Br	-5%
NC(=O)C1CCN(C(=O)c2ccc3c(c2)S(=O)(=O)c2ccccc2C3=O)CC1	-16%
CC1S/C(=N/N=C/c2ccco2)NC1=O (stereo not given)	2%
CCCC1C2CN(C(C)C)CC=C2C(C#N)=C(N)C1(C#N)C#N (stereo not given)	-24%
O=C(O)CSc1nnc(COc2cccc3cccnc23)n1-c1cccc(C(F)(F)F)c1	8%
CCn1c(-c2cc(OC)c(OC)c(OC)c2)n[nH]c1=S	-10%
Cc1ccc(S(=O)(=O)NC2=NCN(CCN3CCOCC3)CN2)cc1	-1%
COc1ccc(CNC(=O)CN(C(=O)CCC(=O)Nc2ccccn2)c2cccc(C)c2)cc1	5%
O=S(=O)(NC1=NCCCCC1)c1ccc2ccccc2c1	-9%
CCOc1cccc(/C=N/NC(=O)c2cc(C3CC3)[nH]n2)c1O	8%
N/C(=N\O)c1cn(Cc2ccccc2Cl)c2ccccc12	-13%
O=C(COC(=O)c1ccc[nH]c1=O)NCCC1=CCCCC1	1%
COC(=O)c1c(NC(=O)COC(=O)CNC(=O)c2ccco2)sc(C)c1C	-3%
CCOC(=O)C1=C(COC(=O)C2CC(=O)N(c3ccc(C)cc3)C2)NC(=O)NC1C (stereo not given)	7%
Cc1ccc(NS(=O)(=O)c2c(C)[nH]c(C)c2C(=O)N2CCCCC2)c(Cl)c1	-5%
COc1ccc(C(=O)Oc2c(Sc3ccc(C)cc3)c(C)nn2C(C)(C)C)cc1OC	-22%
Additional structures
SMILES	VDR inh
CC(=O)OCC(=O)[C@@]1(OC(C)=O)[C@H](C)C[C@H]2[C@@H]3C[C@H](F)C4=CC(=O)C=C[C@@]4(C)[C@]3(F)[C@H](O)C[C@@]21C	9%
CC(C)=CCCC1=CCC(/C=N/NC(N)=O)C(C)C1 (stereo not given)	21%
COc1ccc(N=Cc2cccc(C)c2O)cc1Cl	-5%
COc1ccc(C(=O)N2CCCCC2)cc1S(=O)(=O)Nc1ccccc1	14%
CCCn1nc(C(=O)NCCN2CCOCC2)c2ccccc2c1=O	-5%
S=C(c1ccc2c(c1)OCO2)N1CCCCCC1	1%
CCOC(=O)c1ccc(NC(=O)CSc2nc3sc(C(=O)O)c(C)c3c(=O)[nH]2)cc1	8%
CCCN(CCC)Cc1c(C(=O)N/N=C/c2ccncc2)nnn1-c1nonc1N	3%
COc1ccc(CCNC(=O)C2CC(=O)N(c3ccc(C)cc3)C2)cc1 (stereo not given)	10%
O=c1[nH]c2ccccc2nc1/C=C/c1ccccc1	10%
CC1(CC(=O)N/N=C/c2ccc(OCc3ccc(Cl)cc3Cl)cc2)OCCCO1	-3%
Fc1ccccc1-n1cc(-c2ccccc2)[nH]c1=S	-12%
Cc1cccc(NC(=O)C2CCN(c3ncnc4c3nc3n4CCCCC3)CC2)n1	-24%
O=C(CSc1ncn[nH]1)N1CCOCC1	-13%
CC(C)Oc1cccc(C(=O)NC(=S)Nc2cccc(C(F)(F)F)c2)c1	-16%
CCOc1ccc(S(=O)(=O)NCc2ccc3c(c2)OCO3)cc1NC(C)=O	-5%
Oc1ccc(Cl)cc1C=NN1CCCCCC1	-18%
CCN(CC)C(=O)C(C)N(C#N)c1nc(NC(C)C)nc(NC(C)C)n1 (stereo not given)	-8%
CCC(CC)C(=O)OCc1cc(=O)n2nc(C3CCCCC3)sc2n1	4%
CC(C)Oc1ccc(CNC(=O)C2CCN(C(=O)N3CC(C)Oc4ccccc43)CC2)cc1 (stereo not given)	2%
CC(C)c1cccc(C(C)C)c1NC(=O)Cn1c(=O)cnc2ccccc21	-14%

Bioassay records: PubChem, National Center for Advancing Translational Sciences (NCATS)
